RanGTP-Imp inh – inhibitors of RanGTP-importin-beta interaction, primary screen, biochemical, FRET, CFP-Ran, YFP-importin-beta, homogeneous; Ran GTPase (GTP-bound) - importin-beta complex; cell-free CFP-Ran/YFP-importin-beta FRET ratio; inhibition, % (no concentration beside the values); 1.1% of 300,000 active; AID 2216, 2009;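 active means most replicates above 15%; inconclusive means exactly half above 15%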;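 further: 0% = DMSO wells and 100% = Ran loaded with GDP instead of GTP; wells of about 40 µL received 100 nL stock; the first replicate is given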
A1 inh – caspase 3/7 activation in MEF A1-2A-BIM cells, primary screen, A1 inhibitor project, cell-based, luminescence, HTS | AID 2462, 2010 | caspase activation, % (no concentration beside the values) | 0.066% of 330,000 active | Caspase-Glo 3/7 luminescence, 3 h; percent of clofoctol response, vehicle zero;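 active means over half of replicate activation scores above 10%, or exactly half above 10 with the replicate mean above 10; inconclusive means replicate mean below 10 yet half the replicates above 10; inactive means over half of replicates below 10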;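 further: wells of about 30 µL received 50 nL stock; many hits fall short of the cut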
Beta cell apopt – inhibitors of cytokine-induced beta cell apoptosis, primary screen, luminescence. 0.8% of 300,000 active. INS-1E cytokine-induced death, ATP luminescence, 48 h; percent of positive-control rescue, neutral wells zero. protection from apoptosis, % (test concentration not listed). AID 435005, 2010;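 active means all replicates at 75% or more, or half of them and the mean; inconclusive means half reach 75% but not the mean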;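 further: 0% = cytokine-treated negative control wells and 100% = positive control rescue; higher means more ATP so stronger rescue from cytokine killing; wells of about 40 µL received 100 nL stock; the first replicate is given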
T cruzi inh – inhibitors of intracellular T. cruzi growth, primary screen, luminescence, NIH3T3 host cells | 1.4% of 300,000 active | inhibition, % (test concentration not listed) | T. cruzi beta-gal in NIH3T3, 90 h;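 active means mean inhibition across valid replicates above about 55%, limit read from the data; inconclusive means mean below that limit but half or more replicates reach it; inactive means mean below it, under half of replicates reach it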;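 further: signal also drops with host cell toxicity which is not excluded here; 0% = plate median of DMSO wells and 100% = zero luminescence signal; higher percent means less beta-gal luminescence so fewer parasites; stock transfer was 50 nL into about 50 µL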
Vif TR-FRET – inhibitors of Vif binding to APOBEC3G peptide, primary screen, biochemical, TR-FRET, GST-Vif 1-94, biotin-A3G peptide, dose response retest (AID 1117319); Virion infectivity factor (Human immunodeficiency virus type 1 group M subtype B (isolate …; TR-FRET GST-Vif / biotin-A3G peptide binding; higher % means a stronger effect; test concentration not given here; strong numbers were not always called active; inhibition, %; hits with a dose series show IC50 in µM; 0.57% of 260,000 active;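 active means above the screen mean plus three standard deviations and confirmed in dose response; inconclusive means results disagree or hit not tested in dose response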;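 further: Vif residues 1-94 fused to GST binding biotinylated APOBEC3G peptide 110-148; 0% = full assay without inhibitor and 100% = GST in place of GST-Vif; retest series ran down from 100 µM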
AF4-AF9 inh – inhibitors of AF4 peptide binding to AF9, primary screen, biochemical, AlphaScreen, biotin-AF4 peptide, FLAG-AF9, single point | Protein AF-9 (Homo sapiens), P42568 | inhibition, % at 10 µM | 0.47% of 350,000 active | AID 651704, 2012;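 active means every replicate reaching a set inhibition limit, whatever the replicate mean, cut at about 25% in these data; inconclusive means mean inhibition reaches that limit but some replicates miss it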;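 further: 0% = plate neutral control median and 100% = total signal loss; the record names both 10 and 1 µM as test concentration; the first replicate is given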
Calb FLC – C. albicans growth inhibition with fluconazole, primary screen, CaCi-2 strain, Alamar Blue fluorescence | 0.57% of 300,000 active | AID 1979, 2009 | C. albicans CaCi-2 (fluconazole-resistant clinical isolate) + fluconazole, 48 h | growth inhibition, % (no concentration beside the values);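 active means most replicates above 75%; inconclusive means exactly half above 75%; inactive means most below 75%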;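 further: all wells also contain fluconazole at 8 µg/ml as a sub-toxic cotreatment; 0% = median of DMSO wells and 100% = median of geldanamycin control wells; wells of about 8 µL received 7.5 nL stock; the first replicate is given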
LANA-H2A inh – blockers of LANA interaction with H2A/H2B – biochemical, FP readout, HTS, primary screen; Protein LANA1 (Human herpesvirus 8 type P (isolate GK18)), Q9QR71; cell-free LANA-H2A/H2B peptide, fluorescence polarization; inhibition, % (test concentration not listed); 0.6% of 320,000 active; AID 2629, 2010; in the data active means inhibition mostly above about 10%, no sharp cut-off; inactive means mostly below about 6.7%;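 further: stock transfer was 7.5 nL into about 10 µL; 0% = median of vehicle wells and 100% = median of positive control wells; one replicate is shown; the record names a cut of 25% in any replicate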
Target sequence (Q9QR71 whole entry, looked up): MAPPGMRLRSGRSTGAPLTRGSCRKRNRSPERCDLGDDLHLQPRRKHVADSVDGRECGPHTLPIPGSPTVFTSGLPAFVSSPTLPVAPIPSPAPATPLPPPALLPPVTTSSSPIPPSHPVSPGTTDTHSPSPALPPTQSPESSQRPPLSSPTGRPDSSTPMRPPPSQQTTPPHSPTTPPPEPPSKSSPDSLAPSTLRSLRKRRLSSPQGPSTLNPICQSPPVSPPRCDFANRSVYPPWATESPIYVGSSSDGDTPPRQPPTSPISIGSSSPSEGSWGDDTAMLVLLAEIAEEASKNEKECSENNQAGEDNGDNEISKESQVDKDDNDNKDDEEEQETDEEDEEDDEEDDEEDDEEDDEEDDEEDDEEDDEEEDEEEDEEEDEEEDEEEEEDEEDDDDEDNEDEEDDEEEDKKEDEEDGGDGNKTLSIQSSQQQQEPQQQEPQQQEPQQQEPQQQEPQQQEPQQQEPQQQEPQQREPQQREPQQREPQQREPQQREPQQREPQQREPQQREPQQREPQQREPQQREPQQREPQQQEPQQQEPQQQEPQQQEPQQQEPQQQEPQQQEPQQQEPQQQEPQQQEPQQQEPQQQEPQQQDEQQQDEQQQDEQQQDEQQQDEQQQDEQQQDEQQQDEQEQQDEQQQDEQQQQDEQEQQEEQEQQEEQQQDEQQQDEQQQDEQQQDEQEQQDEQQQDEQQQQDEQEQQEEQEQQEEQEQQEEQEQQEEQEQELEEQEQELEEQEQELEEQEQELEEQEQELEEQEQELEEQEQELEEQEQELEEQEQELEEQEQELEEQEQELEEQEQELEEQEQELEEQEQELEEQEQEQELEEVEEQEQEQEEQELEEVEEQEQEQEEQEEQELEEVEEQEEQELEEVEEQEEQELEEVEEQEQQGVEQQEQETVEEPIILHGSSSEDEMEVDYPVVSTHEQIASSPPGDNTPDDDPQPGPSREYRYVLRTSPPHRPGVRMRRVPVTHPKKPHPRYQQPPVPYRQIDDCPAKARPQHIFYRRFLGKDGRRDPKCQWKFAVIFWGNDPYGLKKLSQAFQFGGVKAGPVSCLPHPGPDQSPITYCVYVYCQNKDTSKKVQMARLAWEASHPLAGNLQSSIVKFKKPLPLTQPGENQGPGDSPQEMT
An asterisk follows results filed as active; ? = inconclusive; / = no result given; & = joins results of further samples. This is a subset; the hit share may differ from the screen's.

SMILES	RanGTP-Imp inh	A1 inh	Beta cell apopt	T cruzi inh	Vif TR-FRET	AF4-AF9 inh	Calb FLC	LANA-H2A inh
CCc1nc2ccccc2c(=O)n1-c1ccc2ccccc2c1	-0.8	0.6	-1	10	-4%	/	-8	3.4
COc1ccc(N/N=C/c2c(O)n(-c3ccc(C)c(C)c3)c(=O)[nH]c2=O)cc1	1.3	0.8	-7	21	18%	/	0	8.8
O=C(Cc1ccccc1)OCCN1CCOCC1	1.8	0.5	3	5	-7%	-7.8	1	3.3
O=C1NC(=O)N(Cc2ccccc2)C(=O)/C1=C/N1CCCc2ccccc21	30*	-0.2	1	-8	/	-3.2	-2	-1.0
CNCCCc1ccccc1	4.2	-0.5	2	3	2%	/	-11	0.0
COC(=O)c1c(C)[nH]c(C(=O)C(Cc2ccccc2)N(C)C)c1C (centres undefined)	?	0.6	-6	24	0%	/	-3	0.0
O=c1c2ccccc2nc(CSc2ncnc3nc[nH]c23)n1-c1ccccc1	0.7	-0.7	0	28	6%	/	-3	2.7
O=C1/C(=C/c2ccccc2Cl)N2CCC1CC2	1.7	1.3	-7	-15	27%	10	-5	-0.8
CC(C(N)=O)N1CC(c2ccccc2)CC1=O (centres undefined)	-1.4	-0.2	-1	-9	5%	/	-6	-6.9
CN1CC(C(=O)c2ccccc2)C(c2ccccc2)C1 (centres undefined)	4.1	-0.3	-7	-4	-1%	-4.5	-42	4.7
C#CC[N+]1(C)C2CCC1CC(O)C2 (centres undefined)	?	0.3	-1	-2	-2%	0.5	-12	0.9
Fc1ccccc1CN1CCN(c2ccc(Cl)cc2)CC1	-0.4	-0.2	0	-14	2%	1.6	2	1.1
Cc1[nH]c2ccccc2c1CCNCc1cccnc1	-6.4	1.4	-3	-4	/	18	28	2.9
O=C(c1cc2ccccn2n1)N1CCC2(CC1)OCCO2	1.7	1.0	-6	-24	3%	/	10	3.7
CCc1cc(=O)oc2c(C)c(OCC(=O)N3C[C@H]4C[C@@H](C3)c3cccc(=O)n3C4)ccc12	?	0.4	/	-5	/	2.7	0	-0.2
CC1=CC(=C2C(=O)NC(=S)NC2=O)C=C(C(F)(F)F)N1CCc1ccccc1	5.3	0.7	15	-4	-127%	/	-12	1.2
Cc1cccc(NC2=NCCCS2)c1C	0.8	0.7	/	-6	31%	/	-4	1.1
CCOC(=O)C1=C(NC(=S)NC(=O)c2ccccc2)c2ccccc2CC12CCCC2	-2.5	/	/	18	/	5.8	-9	/
CCCCn1c(=O)c(C(=O)NCCc2ccccc2)c(O)c2ccccc21	-0.4	0.8	-3	15	/	-8.2	?	0.5
COC(=O)C(O)(c1ccc(NC(=O)c2cccs2)c(C)c1)C(F)(F)F (centres undefined)	2.2	0.0	/	-11	13%	/	-11	5.7
COc1ccc(NC(=O)c2c(C)nn(Cc3ccccc3Cl)c2Cl)cc1Cl	3.9	0.4	-2	-10	8%	-4.0	-10	-0.1
O=C(c1cccn2c(=O)c3cc(Cl)ccc3nc12)N1CCC2(CC1)OCCO2	11	-0.6	2	3	8%	/	19	-0.3
c1ccc(P(c2ccccn2)c2ccccn2)cc1	-1.1	-0.1	-11	-3	12%	1.5	0	-1.4
NC(=O)Cn1cc(C=C2C(=O)NC(=O)NC2=O)c2ccccc21	2.6	0.0	-4	-1	-8%	-1.3	8	0.2
O=C(C1CC(c2ccc(Cl)c(Cl)c2)=NO1)N1CCC2(CC1)OCCO2 (centres undefined)	-3.0	0.1	6	9	-3%	/	13	-2.0
Nc1c(C(=O)OC2CCCCC2)c2nc3ccccc3nc2n1CC1CCCO1 (centres undefined)	23*	0.4	/	15	-4%	/	3	0.9
COc1ccc(CCNCc2sccc2C)cc1	3.9	-1.9	-1	41	/	2.5	-25	-2.6
Cc1ccc2c(c1)N(N=O)CCC2	2.4	1.4	0	-10	18%	/	0	0.8
COc1cc(/C=C/C(=O)c2c(O)n(CCc3ccccc3)c(=O)[nH]c2=O)ccc1O	-6.0	0.6	-6	-37	/	5.6	1	0.3
COc1ccc(C2NCc3ccccc3-n3cccc32)cc1 (centres undefined)	-0.1	0.0	-5	1	8%	4.6	0	-1.4
O=C(c1ccc(Cl)cc1)C1CCCN(Cc2cccc3cnccc23)C1 (centres undefined)	2.3	0.4	11	48	-14%	7.0	6	-0.4
C/C(=N\N(C)c1ccccc1)c1c(O)[nH]c(=O)[nH]c1=O	5.1	-0.1	-1	-19	/	-2.1	2	-0.2
CCn1c(O)c(C=Nc2ccc(N3CCOCC3)cc2)c(=O)n(CC)c1=S	6.5	-0.4	-2	21	21%	/	-12	3.2
COC(=O)C1=C(c2ccccc2OCc2ccccc2)C[C@@H]2CC[C@H]1N2C(=O)NC1CCN(Cc2ccccc2)CC1	/	-0.4	7	/	/	12	/	-3.3
Cc1ccsc1C(=O)C1CCCN(Cc2cnc(N3CCOCC3)s2)C1 (centres undefined)	1.1	1.3	1	60*	/	1.3	-37	-3.2
c1ccc2sc(C3CCNCC3)nc2c1	-2.9	1.2	-10	64*	-2%	5.0	-8	3.1
CCC(=O)OC1(c2cccc(C)c2)CC(C)N(C)CC1C (centres undefined)	6.1	-0.7	-3	-19	4%	/	-3	6.0
Nc1cncc(C(=O)O)c1	1.2&-0.8	0.6&-0.2	-10&-7	-6&-7	3%	-1.5&1.5	-3&0	0.1&-2.9
C[C@]12CC[C@H](O)CC1=CC(=O)C1C2CC[C@]2(C)C(=O)[C@H](O)CC12 (some centres undefined)	/	-0.6	0	/	-4%	2.1	/	-0.4
CCC1(CCc2ccncc2)C(=O)NC(=O)NC1=O	-2.0	0.9	1	-7	0%	/	14	3.3
CC12CCC3C(CC=C4CC5(CCC43C)OCCO5)C1CCC2=O (centres undefined)	-0.1	0.9	-5	-4	9%	-3.5	0	1.8
CCOC(=O)c1c(C)n(Cc2ccc3c(c2)OCO3)c2ccc(O)cc12	-3.2	-0.1	-9	-5	16%	/	12	-3.5
CSc1nc2ccccc2c(=O)n1-c1cccnc1	-4.2	-0.1	-8	-16	-10%	-2.7	-3	-2.8
Cc1cnn(C2CCN(C)CC2)c1N	5.7	1.3	-2	-8	-6%	/	21	-5.8
Cn1c(O)c(C=NCCN2CCNCC2)c(=O)[nH]c1=O	3.2	1.0	-4	6	-3%	1.3	7	0.5
C1CCCN(C2CCNCC2)CC1	0.1	0.1	/	-19	/	6.1	0	-1.8
COc1cccc(C(=O)N2CCC3(CC2)OCCO3)c1	-1.4	-0.2	1	-6	8%	-7.1	-1	-3.1
NC(=O)C1CCN(/C=C2\C(=O)NC(=O)N(Cc3ccco3)C2=O)CC1	-5.2	0.1	-1	-12	?	-19	-8	-6.3
COc1cccc(C(=O)C2CCCN(Cc3cccc(C)n3)C2)c1 (centres undefined)	-2.4	0.4	7	15	/	0.1	-13	-3.0
Nc1c([N+](=O)[O-])cc(F)c(N2CCNCC2)c1Br	-2.1	-0.1	/	15	-3%	-25	2	-2.5
COC(=O)[C@H]1C[C@@H]1[C@H](NP(=O)(c1ccccc1)c1ccccc1)c1ccccc1	3.4	-0.9	-2	-19	7%	-9.2	2	-7.6
O=c1ccc2cc(O[C@@H]3O[C@@H](CO)[C@H](O)[C@@H](O)[C@@H]3O)c(O)cc2o1	102*	0.8	0	-4	-2%	-2.3	0	-2.5
CCC(C)n1c(O)c(C=NCc2cccnc2)c(=O)[nH]c1=S (centres undefined)	1.8	-0.1	/	-12	-3%	0.3	3	0.8
CP(=O)(O)CN1CCCCC1	5.4	1.0	-2	-10	-7%	-1.2	9	-1.4
O=C1NC(=O)N(Cc2ccccc2)C(=O)/C1=C\c1ccco1	-1.5	0.2	-5	5	/	-2.7	15	-3.3
O=C(c1ccc(N2CC3CC(C2)c2cccc(=O)n2C3)c([N+](=O)[O-])c1)N1CCCCC1 (centres undefined)	-0.6	0.3	-1	-4	/	/	-6	-4.0
Cn1c(O)c(C=NCCCCCCCCCCC(=O)O)c(=O)n(C)c1=O	?	0.3	-2	1	20%	-3.0	-2	2.0
Cn1cc(C(=O)NC2CC2)c2ccccc21	1.6	-0.6	/	-6	/	0.7	3	-5.8
CCOP(=O)(OCC)C(NC(=O)CN1C(=O)c2ccccc2S1(=O)=O)C(Cl)(Cl)Cl (centres undefined)	-5.5	0.1	3	-21	-3%	-17	-7	-3.2
COc1ccc2c(c1)[nH]c1c(C)nccc12	/	-0.3	-13	/	/	-2.5	/	-5.2

Further structures:
SMILES	RanGTP-Imp inh	A1 inh	Beta cell apopt	T cruzi inh	Vif TR-FRET	AF4-AF9 inh	Calb FLC	LANA-H2A inh
Cc1ccc(CC(=O)N2CCN(C)CC2)cc1	2.0	-0.4	-1	-4	/	-4.5	48	0.4
COC(=O)C1=C(c2ccc(S(C)(=O)=O)cc2)C[C@@H]2CC[C@H]1N2C(=O)NCc1ccccc1	2.5	0.7	-3	-13	/	-2.9	-2	7.5
CCOP(=O)(OCC)C(O)c1ccc(Br)cc1 (centres undefined)	5.0	0.7	-5	1	-1%	/	-24	0.2
O=C(COc1ccc(Br)cc1)N1CCN(Cc2c[nH]c3ccccc23)CC1	0.7	0.4	106*	24	28%	/	7	7.6
c1ccc(C2CC2)c(OCC2=NCCN2)c1	/	0.3	-8	/	/	-0.8	/	-7.9
CON(C)C(=O)Nc1ccc(Cl)cc1	1.1	0.6	-2	-17	3%	/	-9	-3.1
CC(C)OP(=O)(O)NC(=O)c1ccccc1	2.6	1.5	-3	-21	1%	-1.4	15	0.5
O=C(CN1CCCC1=O)N1CCOCC1	-2.9	0.1	-7	-10	-2%	/	-2	6.3
COC(=O)C1=C(c2ccccc2OCc2ccccc2)C[C@@H]2CC[C@H]1N2C(=O)NCc1ccccc1	/	0.4	-6	/	/	2.6	/	2.5
CCOP(=O)(C(NC(=O)c1ccccc1Cl)=C(Cl)Cl)c1ccccc1 (centres undefined)	2.6	0.1	-4	-3	73%	/	-4	1.5
C[C@H](O)[C@H]1CC[C@H]2[C@@H]3CCC4=CC(=O)CC[C@]4(C)[C@H]3CC[C@]12C	-2.0	0.4	2	9	/	-0.1	-1	1.8
C#C[C@]1(O)CCC2C3CCC4=C/C(=N/OCC(=O)NC(C)C(=O)NC(CCSC)C(=O)O)CC[C@]4(C)C3CC[C@@]21C (some centres undefined)	1.5	0.4	2	1	-9%	0.2	-2	1.4
CC(=NCc1ccc2c(c1)OCO2)c1c(O)n(C)c(=O)n(C)c1=O	-2.3	0.8	7	-40	-3%	/	1	-0.2
CN1CCN(c2nccc3c2ncn3C)CC1	0.7	3.0	-1	6	-7%	/	-9	-0.7
N=C1c2ccccc2CN1NC(=O)C1CC1	-3.4	0.8	-10	-11	/	/	-4	-9.6

Source: PubChem
